# KCNQ2 enhance: KCNQ2 (rat) channel potentiation; CHO-K1 KCNQ2, FluxOR thallium flux fluorescence; hits give high values; B-score at 10 µM; 0.54% of 310,000 active; AID 2239;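 active = fluorescence ratio B-score at least 3 SD of library B-scores, with initial fluorescence B-score within 3 SD, cut at about 5.3 in these data; same plate scores as AID 2156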;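 note: B-score of peak minus minimum over baseline fluorescence ratio after K+ and Tl+ stimulus; positive B-score means potentiation of KCNQ2 with more thallium influx and brighter signal; only the inactives scoring about 0 or higher are listed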
# Target sequence (O88943 whole entry, looked up): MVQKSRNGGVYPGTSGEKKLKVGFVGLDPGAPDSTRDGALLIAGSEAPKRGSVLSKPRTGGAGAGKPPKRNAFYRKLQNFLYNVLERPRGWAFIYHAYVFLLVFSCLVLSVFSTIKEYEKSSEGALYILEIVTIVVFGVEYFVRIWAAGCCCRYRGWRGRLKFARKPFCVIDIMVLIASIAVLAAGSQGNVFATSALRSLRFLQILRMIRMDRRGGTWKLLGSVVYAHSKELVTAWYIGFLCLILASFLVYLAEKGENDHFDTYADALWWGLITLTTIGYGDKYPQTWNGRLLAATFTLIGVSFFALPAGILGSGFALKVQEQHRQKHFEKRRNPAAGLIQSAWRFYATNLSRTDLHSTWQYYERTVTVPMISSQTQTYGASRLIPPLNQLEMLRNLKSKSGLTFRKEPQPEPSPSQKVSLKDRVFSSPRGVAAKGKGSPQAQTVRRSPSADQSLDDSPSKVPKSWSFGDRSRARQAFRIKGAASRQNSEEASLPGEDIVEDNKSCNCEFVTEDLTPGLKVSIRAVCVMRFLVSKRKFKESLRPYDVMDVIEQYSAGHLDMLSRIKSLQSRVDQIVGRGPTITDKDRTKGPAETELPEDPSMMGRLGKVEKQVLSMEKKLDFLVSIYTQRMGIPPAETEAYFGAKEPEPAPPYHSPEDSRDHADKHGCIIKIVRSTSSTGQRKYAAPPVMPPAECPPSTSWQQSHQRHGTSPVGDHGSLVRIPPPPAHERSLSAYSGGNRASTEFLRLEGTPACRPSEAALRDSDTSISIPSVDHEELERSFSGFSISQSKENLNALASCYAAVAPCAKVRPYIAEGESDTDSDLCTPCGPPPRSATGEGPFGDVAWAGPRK
# KCNQ2 enhance baseline: second read-out of KCNQ2 enhance, no call of its own (marks repeat the call); B-score; compound at 10 µM; measured here: initial fluorescence intensity artifact check;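 brightness before thallium and not channel activity; 0 = typical well and far values either way flag optical interference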
# * hit, by the source's call. The list is partial (hit frequency here may not be typical).
KCNQ2 enhance	KCNQ2 enhance baseline	SMILES
0.26	1.9	COc1ccc(-c2noc(CN(C)CCC3CCCCO3)n2)cc1 (centres undefined)
2.5	-0.16	COc1cc(CCC(=O)Nc2ccc(C)c(S(=O)(=O)N(C)C)c2)cc(OC)c1OC
0.9	-0.28	Cn1c(=O)cc(Cl)[nH]c1=O
4.5	0.03	CC(=C\c1ccccc1)/C=C1/SC(=S)N(CCCC(=O)O)C1=O
0.17	0	Cc1cc(C)cc(N2C(=O)CC(Cn3nc(C)cc3C)C2=O)c1 (centres undefined)
2.3	-0.36	O=C(COc1ccccc1O)Nc1ccc(Cl)cc1
2.1	0.36	COc1ccc2[nH]c3c(=O)n(N)c(=O)[nH]c3c2c1
0.41	-1.2	CCCOc1ccc(N2C(=O)CC(N(Cc3ccc(OC)cc3)C(=S)Nc3ccccc3)C2=O)cc1 (centres undefined)
0.03	2.3	Cc1c(N=Cc2cccnc2)c(=O)n(-c2ccccc2)n1C
5.3*	1.8*	O=C(O)c1cc(N/N=C/C(Cl)=C/c2ccccc2)ccc1Cl
0.61	-1.6	CCn1cc(C2=NOC(C(=O)Nc3cc(C)nn3-c3ccccc3)C2)c(C)n1 (centres undefined)
1.3	-0.52	CC(=O)Nc1ccc(S(=O)(=O)N2CCN(CCN3CCOCC3)CC2)cc1Cl
0.02	-2.1	CN(C(=O)COC(=O)c1ccc(Br)o1)c1c(N)n(Cc2ccccc2)c(=O)[nH]c1=O
1.7	-0.87	CCCCNC(=O)c1cccc2c(=O)c(C)c(-c3ccccc3)oc12
0.17	0.05	C=CCn1c(SCC(=O)Nc2cc(NC(C)=O)ccc2OC)nnc1-c1ccccn1
1.1	-0.7	O=C(Nc1ccc2c(c1)OCO2)c1cc2n(n1)C(C(F)(F)F)CC(c1ccccc1)N2 (centres undefined)
1.6	-0.05	CCO[C@H]1OC(C(=O)N2CCOCC2)=C[C@@H](c2ccccc2)[C@@H]1CCCO
0.12	0.31	Cc1ccc(C(=O)Cc2cc3ccccc3oc2=O)c(C)c1
4.5	0.88	O=C(CSc1ccccc1)Nc1nnc(-c2ccco2)o1
0.01	-0.09	CCOc1ccccc1-n1nnnc1SCC(=O)O

# A second format for some results above.
Structure | KCNQ2 enhance | KCNQ2 enhance baseline
O=C(Nc1ccc2c(c1)OCO2)c1cc2n(n1)C(C(F)(F)F)CC(c1ccccc1)N2 (centres undefined) | 1.1 | -0.7
CCO[C@H]1OC(C(=O)N2CCOCC2)=C[C@@H](c2ccccc2)[C@@H]1CCCO | 1.6 | -0.05
Cc1ccc(C(=O)Cc2cc3ccccc3oc2=O)c(C)c1 | 0.12 | 0.31

# (further entries)
KCNQ2 enhance	KCNQ2 enhance baseline	SMILES
1.8	-0.02	Cc1ccc2nc(-c3ccc(NC(=O)CN4CCN(C(=O)c5ccco5)CC4)cc3)sc2c1
1.9	0.07	Cc1ccccc1C(=O)c1cccn1CC(=O)NCCC1=CCCCC1
1.5	-0.36	CC(=O)CSc1ccc(-c2nc3ccccc3[nH]2)cn1
1.1	-0.79	O=C(O)C1CCN(c2ncccn2)CC1
0.11	0.74	COCCCNC(=S)Nc1ccc(C)cc1[N+](=O)[O-]
1.8	-3.4	O=C(c1cc(-c2ccccc2)n[nH]1)N1CCc2c([nH]c3ccccc23)C1c1ccccn1 (centres undefined)
0.61	0.35	CCOc1ccccc1CN1CCN(C2CCSCC2)CC1CCO (centres undefined)
0.51	-0.41	O=[N+]([O-])c1ccc2sc(SCc3nc4ccccn4c3Br)nc2c1
0.63	-0.28	Cc1ccccc1-c1nnnn1C1CCS(=O)(=O)C1 (centres undefined)
0.06	0.24	Cc1ccc(NC(=O)c2cnccn2)nc1

# Grouped by structure, the compounds so far containing bromine.
KCNQ2 enhance	KCNQ2 enhance baseline	SMILES
0.02	-2.1	CN(C(=O)COC(=O)c1ccc(Br)o1)c1c(N)n(Cc2ccccc2)c(=O)[nH]c1=O
0.51	-0.41	O=[N+]([O-])c1ccc2sc(SCc3nc4ccccn4c3Br)nc2c1

# Later entries:
KCNQ2 enhance	KCNQ2 enhance baseline	SMILES
1.8	0.07	O=C(NCc1ccccc1)c1ccc(S(=O)(=O)N2CCCc3ccccc32)cc1
0.3	1.3	O=C(Cc1ccc(Br)cc1)NCCc1ccc(F)cc1
18*	1.2*	Cc1c(N2C(=O)/C(=C\c3ccccc3O)SC2=S)c(=O)n(-c2ccccc2)n1C
0.15	-2.4	CC1CN(Cc2cc(=O)n3ccsc3n2)CC(C)O1 (centres undefined)
0.05	0.41	CCn1c(SCC(=O)Nc2ccc(N3CCOCC3)cc2)nnc1-c1ccc(OC)cc1
0.02	0.36	CCC(=O)NCc1ccc2[nH]c(C)cc2c1
0.17	-0.12	COc1cc(-c2nnc3sc(Cc4ccc(Cl)cc4)nn23)cc(OC)c1OC
0.28	0.36	O=S(=O)(c1ccccc1)N1CCN(S(=O)(=O)c2ccccc2)C1
0.51	0.39	COc1cccc(N2CCN(C(=O)/C=C/c3ccco3)CC2)c1
1.5	0.51	O=C(Nc1ccccc1)N(CCN1CCOCC1)Cc1ccccc1F
0.06	-1.5	COC(=O)c1ccc(COc2cc([N+](=O)[O-])cc3cccnc23)cc1
2	4.3	CCCC[C@@H]1CNC(=O)C(=O)N1CCc1cccc2ccccc12
0.42	-1.6	O=C(O)CCCCOn1ccnc1
1.8	0.31	CCS(=O)(=O)N1CCCC(C(=O)NCC2CCCO2)C1 (centres undefined)
0.43	1.3	O=S(=O)(c1ccc(Cl)nc1)N1CCc2ccccc21
0.39	-0.19	O=C(Nc1ccccc1N1CCCC1)C1CCN(S(=O)(=O)c2ccc(F)cc2)CC1
0.41	-1.6	O=C(CCNc1n[nH]c(=O)[nH]c1=O)N/N=C/c1ccc(C(F)(F)F)cc1
0.04	0.32	COC(=O)Cn1c(=O)c(=O)n(CC(=O)OC)c2ccccc21
0.62	0.39	Cc1cccc(-c2nc3cc(NC(=O)C4CCCO4)ccc3o2)c1 (centres undefined)
0.65	-0.72	Cc1cc(C(=O)COC(=O)c2ccc(Br)o2)c(C)n1Cc1ccco1
0.95	0.7	COc1cc(NC(=O)CCc2c(C)nn(-c3ccc(N4CCOCC4)nn3)c2C)cc(OC)c1OC
1.3	-0.34	Cn1nc(C(=O)Nc2ccc(S(=O)(=O)N3CCCC3)cc2)ccc1=O
0.22	0.33	COc1ccc(CN2CCC(N3CC(C)OC(C)C3)CC2)c(OC)c1OC (centres undefined)
6.4*	1.2*	CCc1ccc(NC(=O)C(=O)NNC(=O)c2cccc(OC)c2)cc1
0.24	-1.6	Cc1cc(C(C#N)c2ccccc2)n2ncnc2n1 (centres undefined)
0.78	0.26	CCOc1ccc(Nc2c3ccccc3nc3ccccc23)cc1
0.26	0.79	Cc1ccc(NC2=C/C(=N/S(=O)(=O)c3cccs3)c3ccccc3C2=O)cc1C
0.54	-0.13	CCN(CC)S(=O)(=O)c1ccc(-c2nnc(SCC(=O)N3c4ccccc4CC3C)n2CC)cc1 (centres undefined)
0.11	0.47	Cc1ccnc(NC(=O)c2ccc3c(c2)C(=O)N(CC2CCCO2)C3=O)c1 (centres undefined)
0.33	-1.7	CN1CCN(/N=C/c2nc(-c3ccccc3Cl)n3ccccc23)CC1
1.2	-1.9	Cc1cc(C)c2cc(CN(CCO)C(=O)Nc3ccc(F)cc3)c(=O)[nH]c2c1
2.2	1.1	CCOc1cccc(C2c3c(oc4ccccc4c3=O)C(=O)N2c2ccccn2)c1 (centres undefined)
0.76	0.02	CN(Cc1cccs1)C(=O)c1ccc(S(=O)(=O)N2CCCCC2)cc1
0.03	0	CCOc1cc(S(=O)(=O)NC2CCCCCC2)ccc1F
0.02	0.5	Clc1cccc(CNc2nnnn2-c2ccccc2)c1
0.51	0.53	COc1cc(OC)cc(-n2c3nc4ccccc4nc3c3c(=O)n(CC4CCCO4)cnc32)c1 (centres undefined)
0.96	0.02	O=C1NC2NC(=O)N(C(Cc3ccccc3)C(=O)O)C2N1 (centres undefined)
0.35	-2	COc1ccc2c(c1)c(CC(=O)OCC(N)=O)c(C)n2C(=O)c1ccc(Cl)cc1
0.47	-0.66	Brc1csc(C=Nc2ccc3c(c2)OCCOCCOCCOCCO3)c1
0.09	-0.57	CCOC(=O)Nc1ccc(NC(=O)OCC)cc1
1.2	0.04	COc1ccc(N(C(=O)c2snc(C(N)=O)c2N)C(C(=O)NC2CCCC2)c2cccs2)cc1OC (centres undefined)
0.36	0.27	Cc1cc(NS(=O)(=O)c2cccs2)no1
0.25	0.99	COc1ccc(/C=C2\SC(=S)N(N3C(=O)CCC3=O)C2=O)cc1O
0.52	-0.62	O=C(CSc1ccc(-c2ccco2)nn1)Nc1ccc(F)cc1
0.08	-2.5	O=C(c1ccccc1)N(Cc1cccc(Br)c1)C1CCS(=O)(=O)C1 (centres undefined)
3	-0.48	Cn1cccc1-c1nc2ccc([N+](=O)[O-])cc2[nH]1
0.02	0.05	CN(C)S(=O)(=O)c1ccc(N=Cc2c(C(F)(F)F)[nH][nH]c2=O)cc1
0.22	-0.35	COc1cccc(N(CC(=O)N2CCc3ccccc3C2)S(C)(=O)=O)c1
2.2	-1.1	Cn1c(/N=C/c2cccs2)nc2ccccc21
0.53	0	CN(C)c1cc(-c2ccc(C#N)cc2)oc(=O)c1Cl

# Molecules from the list above containing a cyano group (2):
KCNQ2 enhance	KCNQ2 enhance baseline	SMILES
0.24	-1.6	Cc1cc(C(C#N)c2ccccc2)n2ncnc2n1 (centres undefined)
0.53	0	CN(C)c1cc(-c2ccc(C#N)cc2)oc(=O)c1Cl

# Remaining list, next part:
KCNQ2 enhance	KCNQ2 enhance baseline	SMILES
0.2	0.46	CN(C)CCNC(=O)CNC(=S)N(Cc1ccccc1)Cc1ccccc1F
2.8	1.7	O=C(O)c1c2c(nc3ccccc13)/C(=C/c1cccc([N+](=O)[O-])c1)CCC2
0.76	0.45	O=C(COc1ccccc1[N+](=O)[O-])Nc1cccc(S(=O)(=O)NC2=NCCCCC2)c1
0.87	-0.63	CC(C)NS(=O)(=O)c1cc(F)ccc1CN1C(=O)c2cccnc2C1=O
0.79	-0.8	CC1CCCCN1C(=S)NCc1ccccc1 (centres undefined)
0.05	-0.45	COc1ccc(-c2ccc(SCC(=O)Nc3cccc(C(C)=O)c3)nn2)cc1OC
0.66	-0.37	NS(=O)(=O)c1ccc(CCNCC(=O)N2CCC(Cc3ccccc3)CC2)cc1
0.63	-0.1	COC(=O)c1ccccc1NC(=O)CN1CCCCC1
1.4	-1.7	C/C(=N\NS(=O)(=O)c1ccc(C)cc1)c1ccc(C)o1
0.94	0.8	COCCn1c(SCc2cnc(-c3ccccc3)s2)nnc1-c1ccncc1

# Brought forward from above: four entries; new compounds follow.
KCNQ2 enhance	KCNQ2 enhance baseline	SMILES
0.66	-0.37	NS(=O)(=O)c1ccc(CCNCC(=O)N2CCC(Cc3ccccc3)CC2)cc1
0.63	-0.1	COC(=O)c1ccccc1NC(=O)CN1CCCCC1
1.4	-1.7	C/C(=N\NS(=O)(=O)c1ccc(C)cc1)c1ccc(C)o1
0.94	0.8	COCCn1c(SCc2cnc(-c3ccccc3)s2)nnc1-c1ccncc1
0.49	0.05	COc1cccc(NC(=O)CN(c2cccc(F)c2)S(C)(=O)=O)c1
1.4	0.9	COc1ccc(-c2cc(=O)oc3cc(OC(C)C(=O)NCC4CCC(C(=O)O)CC4)ccc23)cc1 (centres undefined)
0.93	0.16	CN1CCN(C2=C(Cl)C(=O)N(CCc3ccccc3)C2=O)CC1
0.84	-0.2	O=c1cc(CSc2ccccc2)[nH]c(=S)[nH]1
0.05	0.03	CCCC1Cc2nc(Cl)c(C#N)cc2CO1 (centres undefined)
0.54	0.12	CCOC(=O)c1nnsc1N
0.88	0.5	O=C(NNC(=O)c1ccco1)c1ccccc1
0.04	0.02	O=C(CCN1C(=O)c2ccccc2C1=O)NC(=S)Nc1cccc(Cl)c1
0.97	-1.8	COC(=O)c1nc2n(n1)C(c1ccc(OC)c(OC)c1)C(C(=O)OC1CCCCC1)=C(C)N2 (centres undefined)
1.7	-0.35	C/C(=N/Nc1nc(C)cc(-c2ccccc2)n1)c1ccco1
0.56	-0.31	Cc1cccc(/C=N/NC(=O)C2CCCNC2=O)c1 (centres undefined)
1.9	-1.4	CCCCC1CCC(C(=O)OCC(=O)N(CCOC)c2c(N)n(Cc3ccccc3)c(=O)[nH]c2=O)CC1 (centres undefined)
0.61	-1.8	O=C(Cn1c(CO)nc2ccccc21)NCc1ccc2c(c1)OCO2
1.5	0.82	CC1CCCC(C)N1C(=O)CSc1nc2c(c(=O)n(C)c(=O)n2C)n1C (centres undefined)
1.2	-0.38	COc1cccc2c1OC1(C)CC2N(C(=O)c2ccco2)C(=S)N1c1ccc(F)cc1 (centres undefined)
0.64	-0.93	COc1ccc(C2CC(c3ccccc3)Nc3nc(NC(=O)c4ccco4)nn32)cc1 (centres undefined)
0.77	2.3	O=C(Cn1c(=O)n(CCCC(=O)NC2CCCC2)c(=O)c2ccccc21)NCCC1=CCCCC1
0.23	0.92	C[N+]1(CCCOC(=O)C2(c3ccccc3)CCCC2)CCOCC1
0.01	0.99	Cc1ccc2[nH]c(C(=O)N3CCN(C=O)CC3)cc2c1
0.45	-1.6	COc1ccc(/C=C2\SC(=Nc3ccccc3OC)NC2=O)cc1
0.32	0.24	CC(=O)Nc1cccc(-c2csc(Nc3cc(C)ccn3)n2)c1
0.02	2	Cc1ccc(NC2CCCN(C(=O)c3cn4cccc(C)c4n3)C2)cc1C (centres undefined)
1.4	0.05	CCCSc1nnc(NC(=O)c2nc(SC)ncc2Cl)s1
0.01	-1.5	CSc1nnc(C)c(=O)[nH]1
0.55	-1.8	C=CCN(C(=O)CNS(=O)(=O)c1ccccc1)C(C(=O)NCCOC)c1cccnc1 (centres undefined)
0.46	-0.48	Cc1cccc(OCC(=O)O/N=C(\N)c2ccc(Cl)cc2)c1
0.13	1.2	CC1CCN(S(=O)(=O)c2ccc(C(=O)Nc3ccccn3)cc2)CC1

# Assay outcomes deposited in PubChem by Johns Hopkins Ion Channel Center.
